# Screening results deposited in PubChem BioAssay by several laboratories.
# T cruzi inh – T. cruzi replication inhibition; T. cruzi beta-gal in NIH3T3, luminescence, 90 h; inhibition, % (test concentration not listed); actives 1.4% (n = 300,000); AID 1885;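 active = mean inhibition across valid replicates above about 55%, limit read from the data; inconclusive = mean below that limit but half or more replicates reach it; inactive = mean below it, under half of replicates reach it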;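 also: signal also drops with host cell toxicity which is not excluded here; 0% = plate median of DMSO wells and 100% = zero luminescence signal; higher percent means less beta-gal luminescence so fewer parasites; stock transfer was 50 nL into about 50 µL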
# Calb FLC – affects C. albicans growth with fluconazole; actives 0.57% (n = 300,000); growth inhibition, % (concentration not given with the values); AID 1979; C. albicans CaCi-2 (fluconazole-resistant clinical isolate) + fluconazole, Alamar Blue growth, 48 h;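 active = most replicates above 75%; inconclusive = exactly half above 75%; inactive = most below 75%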;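 also: all wells also contain fluconazole at 8 µg/ml as a sub-toxic cotreatment; 0% = median of DMSO wells and 100% = median of geldanamycin control wells; wells of about 8 µL received 7.5 nL stock; the first replicate is given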
# RanGTP-Imp inh – inhibitors of RanGTP-importin-beta interaction, primary screen, biochemical, FRET, CFP-Ran, YFP-importin-beta, homogeneous; cell-free CFP-Ran/YFP-importin-beta FRET ratio; inhibition, % (concentration not given with the values); actives 1.1% (n = 300,000);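 active = most replicates above 15%; inconclusive = exactly half above 15%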;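 also: 0% = DMSO wells and 100% = Ran loaded with GDP instead of GTP; wells of about 40 µL received 100 nL stock; the first replicate is given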
# A1 inh – inhibitors of the anti-apoptotic protein A1, read as caspase activation. MEF A1-2A-BIM cells, Caspase-Glo 3/7 luminescence, 3 h; percent of clofoctol response, vehicle zero. caspase activation, % (concentration not given with the values). actives 0.066% (n = 330,000). AID 2462;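 active = over half of replicate activation scores above 10%, or exactly half above 10 with the replicate mean above 10; inconclusive = replicate mean below 10 yet half the replicates above 10; inactive = over half of replicates below 10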;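 also: wells of about 30 µL received 50 nL stock; many hits fall short of the cut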
# MLL AF4-AF9 inh – blocks AF4 peptide binding to human AF9; P42568; AlphaScreen, biotin-AF4 peptide binding to FLAG-AF9; actives 0.47% (n = 350,000); inhibition, % at 10 µM; AID 651704;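 active = every replicate reaching a set inhibition limit, whatever the replicate mean, cut at about 25% in these data; inconclusive = mean inhibition reaches that limit but some replicates miss it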;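 also: 0% = plate neutral control median and 100% = total signal loss; the record names both 10 and 1 µM as test concentration; the first replicate is given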
# Beta apoptosis – blocks beta cell apoptosis; INS-1E cytokine-induced death, ATP luminescence, 48 h; percent of positive-control rescue, neutral wells zero; protection from apoptosis, % (no concentration beside the values); actives 0.8% (n = 300,000); AID 435005;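 active = all replicates at 75% or more, or half of them and the mean; inconclusive = half reach 75% but not the mean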;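 also: 0% = cytokine-treated negative control wells and 100% = positive control rescue; higher means more ATP so stronger rescue from cytokine killing; wells of about 40 µL received 100 nL stock; the first replicate is given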
# Vif A3G – inhibitors of Vif binding to APOBEC3G peptide, primary screen, biochemical, TR-FRET, GST-Vif 1-94, biotin-A3G peptide, dose response retest (AID 1117319). TR-FRET GST-Vif / biotin-A3G peptide binding; higher % means a stronger effect; test concentration not given here; strong numbers were not always called active. one-dose inhibition, %; IC50 in µM for titrated hits. actives 0.57% (n = 260,000);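 active = above the screen mean plus three standard deviations and confirmed in dose response; inconclusive = results disagree or hit not tested in dose response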;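 also: Vif residues 1-94 fused to GST binding biotinylated APOBEC3G peptide 110-148; 0% = full assay without inhibitor and 100% = GST in place of GST-Vif; retest series ran down from 100 µM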
# LANA-H2A inh – blocks KSHV LANA binding to histone H2A/H2B. Q9QR71. cell-free LANA-H2A/H2B peptide, fluorescence polarization. inhibition, % (concentration not given with the values). actives 0.6% (n = 320,000). AID 2629; in the data active = inhibition mostly above about 10%, no sharp cut-off; inactive = mostly below about 6.7%;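 also: stock transfer was 7.5 nL into about 10 µL; 0% = median of vehicle wells and 100% = median of positive control wells; one replicate is shown; the record names a cut of 25% in any replicate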
# Target sequence (Q9QR71 whole entry, looked up): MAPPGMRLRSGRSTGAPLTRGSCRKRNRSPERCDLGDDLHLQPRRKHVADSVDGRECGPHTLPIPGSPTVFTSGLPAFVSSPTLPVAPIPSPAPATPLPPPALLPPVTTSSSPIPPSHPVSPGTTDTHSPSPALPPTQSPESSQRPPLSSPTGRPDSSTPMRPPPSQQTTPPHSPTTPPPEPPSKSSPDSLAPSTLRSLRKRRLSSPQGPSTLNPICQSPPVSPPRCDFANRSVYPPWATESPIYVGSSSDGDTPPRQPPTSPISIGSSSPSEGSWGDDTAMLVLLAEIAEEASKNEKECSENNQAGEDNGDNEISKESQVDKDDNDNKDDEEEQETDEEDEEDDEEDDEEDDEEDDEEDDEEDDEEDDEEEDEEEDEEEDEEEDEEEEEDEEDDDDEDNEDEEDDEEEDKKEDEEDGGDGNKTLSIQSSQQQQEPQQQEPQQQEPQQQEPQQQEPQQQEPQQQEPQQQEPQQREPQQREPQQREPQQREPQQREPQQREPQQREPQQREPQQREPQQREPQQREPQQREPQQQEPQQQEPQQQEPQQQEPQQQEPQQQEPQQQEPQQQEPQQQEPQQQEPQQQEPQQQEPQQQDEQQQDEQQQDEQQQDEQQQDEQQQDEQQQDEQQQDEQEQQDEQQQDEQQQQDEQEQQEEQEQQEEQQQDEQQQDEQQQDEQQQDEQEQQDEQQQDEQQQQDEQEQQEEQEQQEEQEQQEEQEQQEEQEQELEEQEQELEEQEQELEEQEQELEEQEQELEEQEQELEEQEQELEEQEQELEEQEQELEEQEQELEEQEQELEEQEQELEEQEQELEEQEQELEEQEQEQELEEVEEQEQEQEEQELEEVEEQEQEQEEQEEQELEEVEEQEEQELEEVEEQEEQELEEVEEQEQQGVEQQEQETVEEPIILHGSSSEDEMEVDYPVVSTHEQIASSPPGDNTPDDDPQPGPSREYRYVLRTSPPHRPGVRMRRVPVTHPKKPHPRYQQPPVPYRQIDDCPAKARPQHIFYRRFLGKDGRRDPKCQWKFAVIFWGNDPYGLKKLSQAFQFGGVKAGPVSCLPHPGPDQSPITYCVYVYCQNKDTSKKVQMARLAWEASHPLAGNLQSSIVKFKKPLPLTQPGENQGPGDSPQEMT
# * = called active by the depositor; u = inconclusive; x = not tested or not shown. Compounds were not picked by outcome. Share with any hit: about 4.3%.
# Values in the order: T cruzi inh	Calb FLC	RanGTP-Imp inh	A1 inh	MLL AF4-AF9 inh	Beta apoptosis	Vif A3G	LANA-H2A inh
> COc1cccc2cc(S(=O)(=O)c3ccc(C)cc3)/c(=N/NS(=O)(=O)c3ccc(C)cc3)oc12
→ 2	-5	u	0.4	-1.5	-3	-6%	3.6
> Cc1ccccc1CC(=O)N1CCCc2ccccc21
→ 7	25	1.2	1.2	-9.9	-3	x	4.7
> COC(=O)C1=C(C)OC(N)=C(C#N)C1c1cc(OC)c(OCC(N)=O)cc1Cl (stereo not given)
→ 4	26	0.9	1.2	x	-5	9%	-4.8
> COc1ccc(C(=O)c2ccc(OC)c(OC)c2)cc1
→ 10	9	2.4	-0.6	x	0	8%	4.2
> Cc1nnc2ccc(-c3cccc(NC(=O)c4ccc(Br)o4)c3)nn12
→ 3	4	-4.3	1.3	0.0	1	1%	-6.4
> Cc1cccn2c(=O)c3cc(C#N)c(=O)n(CCCN4CCOCC4)c3nc12
→ 0	34	117*	0.0	x	7	10%	4.8
> COc1cc(=O)n(C)c2ccccc12
→ 3	5	2.8	0.3	-7.9	-3	2%	-10
> CCOC(=O)C(Cc1ccc(NC(C)=O)cc1)N1C(=O)c2ccccc2C1=O (stereo not given)
→ x	x	x	0.8	-1.2	1	x	1.1
> O=C(CN1CCN(C/C=C/c2ccccc2)CC1)Nc1ccc(F)cc1F
→ 32	4	-2.5	0.0	0.5	-8	-4%	0.0
> CCCCN(C(=O)CN1C(=O)C2CCCCC2C1=O)c1c(N)n(Cc2ccccc2)c(=O)[nH]c1=O (stereo not given)
→ -11	3	-2.4	0.0	-40	-1	-1%	5.9
> CCN(CC)S(=O)(=O)c1ccc(NS(=O)(=O)c2cccc(C)c2)cc1
→ -11	30	1.2	0.5	x	-6	15%	0.6
> CCN(CC)CCNC(=O)c1ccc(NC2=NC3CS(=O)(=O)CC3S2)cc1 (stereo not given)
→ -16	-2	1.9	0.0	-1.4	0	-4%	-1.0
> CC(C)(C)c1ccc(-c2nc(-c3ccncc3)no2)cc1
→ u	-15	-1.7	-2.3	1.8	32	2%	-5.5
> COc1ccc(/C=C(\C#N)C(=O)OCCNC(=O)c2ccncc2)cc1
→ -23	-6	2.4	0.5	-3.2	-2	-9%	-7.7
> Cc1ccc(C(C)C)cc1S(=O)(=O)Nc1cccnc1
→ 2	12	4.1	-1.0	0.3	x	-2%	0.8
> CC1CN(CCCCOc2ccc(Cl)c3ccccc23)CC(C)O1 (stereo not given)
→ 51	3	2.9	-0.3	0.5	1	-10%	4.3
> O=C(COc1ccccc1C(=O)O)Nc1ccc(SC(F)F)cc1
→ -2	-2	-3.4	0.1	0.0	-3	86%	-2.8
> Cc1ccc(NC(=O)CN(C)CC(=O)NC2CCCc3ccccc32)cc1 (stereo not given)
→ -18	-1	4.7	-0.1	1.6	-4	x	-1.8
> COC(=O)c1ccc(CN2C(=O)C3CCCCC3C2=O)o1 (stereo not given)
→ -1	29	1.4	1.0	-0.5	-7	10%	0.7
> CCc1ccc(-c2cc(C)no2)cc1S(=O)(=O)NC(C)Cc1ccco1 (stereo not given)
→ 20	2	1.7	-0.8	-1.3	1	x	-2.6
> NS(=O)(=O)c1cccc(NC(=O)COC(=O)Cn2cnc3ccccc32)c1
→ 12	-1	1.9	1.1	-0.1	-4	7%	-3.6
> CN(CC(=O)Nc1ccc(F)cc1[N+](=O)[O-])C1CCS(=O)(=O)C1 (stereo not given)
→ x	x	x	3.3	6.2	0	x	3.5
> C[C@@H](CO)NC(=O)c1ccc2c3n(nc2c1)-c1ccccc1CO3
→ 0	-10	-4.9	-11	-3.1	x	-4%	5.4
> CCC/C(C(=O)NCCO)=C1/c2ccccc2C(=O)N1c1ccccc1
→ x	x	x	-0.1	3.2	1	x	-2.3
> CCOC(=O)N1CCN(S(=O)(=O)c2ccc(OC)c(Cl)c2Cl)CC1
→ -4	-13	-1.2	1.4	x	1	4%	2.0
> CCN(CC(=O)Nc1ccccc1Br)Cc1nc2ccccc2c(=O)[nH]1
→ 2	-6	3.0	0.2	x	-8	4%	5.1
> CCC(Oc1ccccc1)C(=O)Nc1nnc(S(=O)(=O)N2CCCCC2)s1 (stereo not given)
→ 1	-5	-0.9	-0.8	-6.1	2	x	3.4
> CCOc1ccc2c(c1)C(c1ccc(C)cc1)=NNC(c1ccc(OC)cc1)=N2
→ 23	-21	4.5	1.0	5.3	11	-1%	1.4
> COc1ccc(C(=O)NC2CCCCC2)cc1S(=O)(=O)N1CCCC1
→ -3	-5	2.8	-0.1	x	-4	1%	1.2
> O=C(Nc1cccc2ccccc12)N1CCN(c2ccccc2)CC1
→ x	x	x	1.8	x	1	-5%	-0.9
> CCOC(=O)c1ccc(/[N+]([O-])=C/c2ccccc2)cc1
→ x	x	x	-1.9	-4.3	-2	x	-5.9
> O=C(Nc1ccc(Br)cc1)C1CC=CCC1C(=O)OCC1CCCO1 (stereo not given)
→ -12	6	0.6	0.8	0.0	-11	2%	-0.9
> O=C(Cn1cc(C(F)(F)F)ccc1=O)N1CCN(S(=O)(=O)c2ccccc2)CC1
→ 0	8	-0.8	-0.6	x	-7	-5%	5.5
> C=CCNc1nc(-c2ccccc2)nc(-n2ccnc2)n1
→ -8	24	-4.3	-1.2	x	11	u	-3.5
> Cc1ccc(C(=O)N2CCC(C)CC2)cc1S(=O)(=O)N1CCCCC1
→ 20	-7	1.3	0.8	-0.9	x	8%	0.9
> CCOC(=O)c1ccc(NC(=S)NC2CCCC2)cc1
→ 2	-4	3.3	-0.4	3.5	-2	1%	-3.2
> COc1ccc(N(C(=O)c2snc(C(N)=O)c2N)C(C(=O)NC2CCCC2)c2cccs2)c(OC)c1 (stereo not given)
→ 9	15	0.4	0.3	5.7	6	x	3.8
> COc1ccccc1NC(=O)COc1ccccc1
→ -17	u	3.8	-1.0	9.3	4	3%	-1.2
> O=C(CN1C(=O)NC2(CCCCC2)C1=O)N1CCc2ccccc2C1
→ 1	10	u	0.9	-0.4	-7	x	-0.3
> CCCOC(=O)C1C2C=CC(C2)C1C(=O)OCC(=O)c1ccccc1 (stereo not given)
→ -5	-8	1.3	0.3	x	-6	4%	-0.8
> CCOC(=O)C1CCCN(S(=O)(=O)c2c(C)[nH]c(C)c2C(=O)N2CCCC2)C1 (stereo not given)
→ -3	-7	0.6	1.0	-0.4	-4	x	-2.7
> Cc1ccc(-c2nc3cccnc3s2)cc1NS(C)(=O)=O
→ -4	1	5.0	-0.4	-1.8	4	-95%	-8.8
> O=C1C=C(c2ccccc2)CC(/C=C/c2ccccc2)C1 (stereo not given)
→ 19	12	-1.5	0.7	x	-1	-5%	-1.3
> COc1ccc(-c2nc(C(N)=O)c3[nH]c(=O)n(-c4cccc(C)c4)c3n2)c(OC)c1
→ 4	-20	2.9	0.3	5.5	3	u	0.9
> C(=C\c1ccccc1)/CSc1ccccn1
→ -16	-11	3.6	-2.2	0.3	0	-1%	-0.7
> CC(=O)NC(CCS(C)(=O)=O)C(=O)Nc1cccc(Cl)c1Cl (stereo not given)
→ -5	-5	-2.5	0.2	8.5	-3	5%	4.9
> Fc1ccccc1N1CCN(C2CCN(Cc3c[nH]c4ccccc34)CC2)CC1
→ 37	-19	-3.3	-0.4	x	8	x	-0.9
> CCOc1ccc(C(=O)COC(=O)c2c(-c3ccccc3)noc2C)cc1
→ 12	5	3.0	-1.3	-6.6	5	2%	-0.1
> CN(CC(=O)NCc1ccncc1)S(=O)(=O)c1ccc(F)cc1
→ -10	-7	-3.2	0.0	-0.6	-3	1%	3.6
> O=c1oc(-c2cccs2)nc2sc3c(c12)CCCCC3
→ -1	-3	-1.7	0.2	x	-2	x	0.9
> COCCNC(=O)C(c1ccncc1)N(C(=O)Cn1nnc2ccccc21)c1ccc(OC)cc1 (stereo not given)
→ 0	2	1.1	1.3	x	-7	7%	-1.5
> O=C(C1=C(O)C(=O)N(CCN2CCOCC2)C1c1cccs1)c1cc2ccccc2o1 (stereo not given)
→ -12	-8	0.1	-1.1	1.2	-9	x	-2.3
> Cc1ccc(C(=O)CSc2nc(C)cc(=O)[nH]2)cc1
→ -9	-19	6.2	-0.1	x	x	0%	-6.5
> COC(=O)c1cccc(C23CC4(C2)[C@H](CN(Cc2cccnc2)[C@@H]4c2ccccc2)C3c2ccc(Cl)nc2)c1 (stereo not given in full)
→ 41	9	4.7	-0.2	x	-8	-3%	1.9
> CC(=NCCc1ccccc1)C1=C(O)C(c2ccccc2)OC1=O (stereo not given)
→ 3	1	1.1	-0.6	-0.9	0	0%	7.2
> Cc1sc2ncnc(OCC(=O)N3CCN(S(=O)(=O)c4ccccc4)CC3)c2c1C
→ 4	0	0.3	-0.2	x	1	5%	0.5
> COc1ccc(-c2cc(C(F)(F)F)c(C#N)c(SCC(=O)O)n2)cc1OC
→ -3	-1	-1.1	0.9	x	2	x	-0.7
> CCOC(=O)c1cc(-c2ccccc2C)nn1Cc1cc(C)no1
→ x	x	x	-2.0	0.4	-8	x	-6.8
> COc1ccc(S(=O)(=O)N2CCCN(C)CC2)cc1
→ 4	-3	2.6	2.7	1.4	-3	2%	3.6
> CSc1ccccc1OCc1cc(C(=O)N(C)Cc2ccc3nsnc3c2)no1
→ 11	18	-1.1	0.3	1.3	-2	-16%	4.6

# Other results.
# Values in the order: T cruzi inh	Calb FLC	RanGTP-Imp inh	A1 inh	MLL AF4-AF9 inh	Beta apoptosis	Vif A3G	LANA-H2A inh
> CN(C)S(=O)(=O)c1ccc(-c2csc(-c3cccnc3)n2)cc1
→ 7	5	4.9	-1.1	-1.2	-7	-10%	0.1
> O=c1c2cc(Cl)ccc2[nH]c(=S)n1Cc1ccccn1
→ -5	18	4.0	-0.1	x	0	-7%	0.2
> O=C(CC1CS(=O)(=O)CC1CC(=O)Oc1ccccc1F)Oc1ccccc1F (stereo not given)
→ -13	25	-0.2	-0.9	0.6	-5	20%	0.2
> CC(O)c1nc2ccccc2n1C/C=C/c1ccccc1 (stereo not given)
→ -16	2	-1.1	0.8	x	4	-6%	1.8
> Cc1ccc(S(=O)(=O)c2nc(S(C)(=O)=O)sc2N2CC(C)OC(C)C2)cc1 (stereo not given)
→ -22	-1	-2.2	0.1	-1.9	-5	4%	-7.0
> CC(c1nnc(Sc2nnnn2-c2ccccc2)n1-c1ccc(F)cc1)N(C)C (stereo not given)
→ -12	-9	0.6	-0.7	x	-2	21%	1.6
> Cc1ccc(S(=O)(=O)N2CCOC2CNC(=O)C(=O)NCc2ccc3c(c2)OCO3)cc1 (stereo not given)
→ 1	-1	-5.3	0.2	-0.4	-2	x	7.4
> CCn1ncc(/C=C/C(=O)NCc2cn(C)nc2C)c1C
→ -1	-4	-1.0	-1.0	x	-6	69%	4.2
> CC(=O)C1=C(O)C(=O)N(CCc2c[nH]c3ccccc23)C1c1cccc(O)c1 (stereo not given)
→ -7	-5	5.2	0.2	x	0	u	-1.5
> CCCCC[C@H]1CN(Cc2ccccc2)C(=O)[C@@H]1CC(=O)NCc1ccc(OC)cc1
→ -1	10	0.8	-1.2	-1.5	-3	x	1.4
